Source: PubChem
CapD inh – blocks the Bacillus anthracis CapD enzyme | AID 492967 | hit rate 0.23% among 140,000 | z-score (no concentration beside the values) | purified CapD enzyme, fluorescence intensity read-out; hits give low values; some hits fall short of the stated cut;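 active = z-score under -4 in either of two replicates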;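 also: stock transfer was 100 nL into about 40 µL; score is relative to mean and spread of the plate; one replicate is shown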
AID504770 – E. coli YBA685 growth inhibition, screen for V. cholerae RctB inhibitors; hit rate 0.27% among 130,000; AID 504770; E. coli YBA685 rctB-dependent plasmid, OD600 growth, 3 h; hits give low values; z-score (test concentration not listed);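 active = z-score under -2 on both plates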;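 also: wells of about 30 µL received 100 nL stock; score is relative to mean and SD of the test wells; the first replicate is given; strong numbers were not always called active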
An asterisk follows results filed as active; . = not tested or not shown.

SMILES	CapD inh	AID504770
N=C1C(c2ccccc2)=C(O)CN1NC(=O)c1ccccc1	0.13	-0.55
CCc1c(C)nn(-c2ccc(C(=O)N3CCN(c4ccc(C(C)=O)cc4)CC3)cc2)c1C	5.1	.
Cc1c(NC(=O)C2Cc3ccccc3CN2S(=O)(=O)c2ccccc2F)c(=O)n(-c2ccccc2)n1C (stereo not drawn)	.	-0.35
CCOC(=O)c1c(C)n(C(C)C)c2ccc(OC(=O)c3ccccc3)cc12	-0.91	-0.45
COc1ccc(C(=O)Cn2ccnc2C(=O)NCCc2ccc(Cl)cc2)cc1	1	-0.75
O=C(COc1ccccc1Cl)c1ccc[nH]1	.	-0.5
O=c1[nH]c2ccccc2c(O)c1-c1nc2ccccc2s1	95	1.9
Cc1c(C(=O)c2ccccc2)oc2c(Br)cc(Br)cc12	-0.06	.
CN(Cc1ccccc1)C(=O)N1c2ccccc2CCc2ccccc21	-0.26	.
Cc1c2c(=O)[nH]ncc2c(-c2ccccc2)n1CCSCc1c(F)cccc1Cl	66	1.6
Cc1ccc(SCc2[nH]nc3c2C(C)C(C#N)=C(N)O3)cc1 (stereo not drawn)	0.08	-0.35
O=C1NC(=O)C(=Cc2ccc(O)c(O)c2)C(=O)N1	-1.5	.
OCCNCC1CC2C=CC1C2 (stereo not drawn)	.	0.5
CN(C)S(=O)(=O)c1ccc(-c2cc(C(F)(F)F)on2)s1	0.15	0.65
CCOC(=O)C1=C(CC)Nc2ccccc2N=C1NC(=O)C1CC(=O)N(CCc2ccccc2)C1 (stereo not drawn)	.	-1.1
Cc1ccc(-n2c(SCc3nnc4n3CCCCC4)nnc2-c2ccccc2)cc1	.	1.1
CCN(CC)S(=O)(=O)c1ccc(NC(=O)C2CC(O)CN2S(=O)(=O)c2ccc(OC)cc2)cc1 (stereo not drawn)	.	0.25
COc1cccc(-n2nc(-c3ccnn3-c3ccc(F)cc3)c(=O)n(C)c2=O)c1	-0.52	.
N#CNc1nc2ccccc2nc1Cl	32	-0.6
C(=N\c1nc2ccccc2s1)/Nc1nc2ccccc2s1	.	0.65
O=C1CSC(c2cccs2)N1 (stereo not drawn)	0.15	-0.85
CCOC(=O)c1ccc2nc(C(F)(F)F)cc(N3CCN(C)CC3)c2c1	1.1	2.6
CCOC(=O)c1cc2cc(OC)ccc2oc1=O	1.5	2.4
C#CCNC(C)c1ccccc1 (stereo not drawn)	.	-0.95
Cc1nnc(NC(=O)CSc2nnc(CNC(=O)COc3ccc(Cl)cc3)n2-c2ccccc2)s1	.	1.4
The list continues:
SMILES	CapD inh	AID504770
Cc1nc(N2CCCCC2)c2c(C)c(C(=O)Nc3ccc(F)cc3F)sc2n1	-0.54	.
OC(C#CCN1CCOCC1)c1ccccc1 (stereo not drawn)	0.56	-0.3
Cc1nc2ccc(F)cc2cc1C(=O)O	-0.16	-1
CC(=O)NC(=O)c1cc2cc(Cl)cc(Cl)c2oc1=Nc1ccc(F)cc1	0.5	.
CCOC(CCn1c(=S)[nH]c2cc(C(=O)OC)ccc2c1=O)OCC	3	-0.3
CCSc1ccc(-c2ccccc2)nn1	.	1.1
CCOC(=O)C1=C(C)N=c2s/c(=C\c3cc4c(cc3Br)OCO4)c(=O)n2C1c1ccc2c(c1)OCO2 (stereo not drawn)	-0.095	.
CN(C)CCCNc1c2c(nc3ccccc13)CCC2	-1.6	-1.1
COc1nc(NC(C)=O)nc(C)c1Br	-1.1	-1.4
CC12CCC(=O)N1C(C(=O)OCN1C(=O)c3ccccc3C1=O)CS2 (stereo not drawn)	.	1.4
COc1cccc(Cn2c(SCc3ccc(C(=O)NCc4ccccn4)cc3)nc3ccncc32)c1	0.66	-0.8
O=C(O)c1ccn(C(F)F)n1	.	-0.25
CCn1nc(C)cc1C(=O)n1nc(C)c(Sc2nccn2C)c1C	0.48	-0.25
Cc1cnn(Cc2ccccc2)c1N	.	0.75
CCCCc1[nH]nc2c1C1(CCN(C)CC1)C(C#N)=C(N)O2	1.6	-1.1
CC1(c2csc(Nc3ccccc3Cl)n2)CCC(=O)O1 (stereo not drawn)	-0.34	0.3
COC(=O)c1cc(=O)n2c(nc3ccccc32)s1	-1.4	0
CCOC(=O)Cn1c(=NC(=O)c2ccco2)sc2c(C)cc(C)cc21	.	0
Cc1cc(C)c2nc(C(F)(F)F)nc(N3CCN(Cc4ccccc4)CC3)c2c1	0.53	-1.9
O=C(Nc1sc2c(c1C(=O)NCc1cccnc1)CCCCC2)c1cccnc1	-0.15	.
CCSc1ccccc1C(=O)N=C1NC(=O)CC2C(=O)NCCN12 (stereo not drawn)	-0.62	-0.15
CCC(Sc1nc2nccnc2c(=O)n1Cc1ccc2c(c1)OCO2)C(=O)NC1CCCCC1 (stereo not drawn)	-0.97	-0.25
Cn1ncc2c(Nc3cccc(C(F)(F)F)c3)ncnc21	0.66	-1.4
O=C(c1cccnc1)N1CCC(Cc2ccccc2)CC1	.	1.1
O=C(NC(Cc1ccccc1)C(=O)O)c1ccc(Cl)c(Cl)c1 (stereo not drawn)	0.36	0.8
The list continues:
SMILES	CapD inh	AID504770
Cn1c(=O)c2[nH]c(-c3ccc(Cl)cc3)c(O)c2n(C)c1=O	3.3	0.85
CCOC(=O)c1ccc2c(c1)n(CCCS(=O)(=O)[O-])c(/C=C/C=C1\N(CC)c3cc(Cl)c(Cl)cc3N1CCOc1ccccc1)[n+]2CC	-0.49	.
C[C@]12N[C@H](Cc3ccccc31)c1ccccc12	-0.68	.
Cc1ccccc1-n1c(=S)[nH]c2[nH]ncc2c1=O	-0.19	.
CC(C)(C)c1cc(C(=O)NN)no1	10	-0.45
NC1=NC2(CCCC2)N=C(Nc2ccccc2)N1	.	-0.5
Cc1cc(C)cc(NC(=O)CSc2nnc(NC(=O)C(C)C)s2)c1	-0.27	-0.5
C/C(=N/Nc1nc2ccccc2s1)C1=C(O)c2ccccc2C1=O	.	-0.65
CC(C)(C)CCNS(=O)(=O)c1ccc(Br)cc1	0.26	.
CCS(=O)(=O)c1ccc2nc(SCC(=O)n3c4c(c5ccccc53)CCCC4)oc2c1	0.025	0.45
COc1cccc(NC(=O)/C=N/O)c1	.	-1.3
CS(=O)(=NS(=O)(=O)c1ccccc1C(F)(F)F)c1ccc(Cl)cc1 (stereo not drawn)	0.32	-0.55
C=CCN1C(=O)NC2(O)C(=O)c3ccccc3C12O (stereo not drawn)	0.82	.
CCOC(=O)CCc1c(C)n(CC)c2ncnn2c1=O	-0.27	1.4
COc1ccc(C2(CC(=O)O)CCOC(C)(C)C2)cc1 (stereo not drawn)	.	-0.05
COC(=O)c1ccc(Oc2nc(-c3cccnc3)nc3ccccc23)cc1	0.86	0.15
O=C(O)CC1(CC(=O)N2CCN(Cc3ccc4c(c3)OCO4)CC2)CCCC1	-0.79	.
Cn1c(=O)n(C)c2cc(/C=C3/NC(=O)N(Cc4ccc(Br)cc4)C3=O)ccc21	3.8	.
O=C(OCC(=O)N1CCN(Cc2ccccc2)CC1)c1ccc(Cl)cc1	.	-1.8
COC(=O)c1cccc(C(=O)Nc2cnc3ccccc3c2)n1	0.18	1.7
CC1(C)CN=C(NC2CCCCC2)S1	-0.005	1.1
CNC(=O)c1oc2c(c1C)C(=O)CC(C)(C)C2	-0.14	2.2
CCN(C(=O)COc1ccc(-c2nnco2)cc1)c1cccc2ccccc12	.	-0.6
COc1ccc(/C=N/NC(=O)c2ccc3c(c2)NC(=O)C(C)(C)O3)cc1OC	.	0
O=C(Nc1ccccc1C(=O)O)c1cc(S(=O)(=O)N2CCCC2)ccc1Cl	0.2	-0.05

Taken from above:
In AID504770, COc1ccc(/C=N/NC(=O)c2ccc3c(c2)NC(=O)C(C)(C)O3)cc1OC reads 0
In AID504770, CS(=O)(=NS(=O)(=O)c1ccccc1C(F)(F)F)c1ccc(Cl)cc1 (stereo not drawn) reads -0.55
In CapD inh, Cn1c(=O)c2[nH]c(-c3ccc(Cl)cc3)c(O)c2n(C)c1=O reads 3.3
In AID504770, NC1=NC2(CCCC2)N=C(Nc2ccccc2)N1 reads -0.5

The listing continues.
SMILES	CapD inh	AID504770
CS(=O)(=O)NCCc1ccccc1	3.9	-0.2
CCOC(=O)C1=CN(Cc2ccc(OC)c(OC)c2)C=C(C(=O)OCC)C1c1ccc(OC)c(O)c1	29	.
CC1=C(C(=O)Nc2ccc(C)cc2)C(c2ccc([N+](=O)[O-])cc2)n2nnnc2N1 (stereo not drawn)	-0.26	.
Cc1cccc(C(O)(C(=O)NN(C(=O)c2ccc(Br)o2)c2ccccc2)c2cccc(C)c2)c1	-0.27	.
COc1cc(C2SCCS2)cc(Br)c1OC(=O)NC(=O)c1c(F)cccc1F	1.6	0.35
CCCCC1CCC(C(=O)Nc2c3c(nn2C(C)(C)C)CS(=O)(=O)C3)CC1 (stereo not drawn)	0.19	-0.1
COC(=O)c1oc2ccc(Cl)cc2c1N	69	.
O=C(C=C1NCCN1)c1ccccc1	.	-0.8
c1ccc(CNc2ccc3c(ccc4c5ccccc5[nH]c34)n2)cc1	80	-1
CCOC(=O)c1c(NC(=O)Cc2ccc(OC)cc2)sc(C(=O)Nc2ccc(C)c(Cl)c2)c1C	0.72	.
CCc1ccc(-c2ccc(C(=O)N3CCN(C(=O)OCc4ccccc4)CC3)cc2)cc1	-0.78	.
COc1ccc(-c2noc(N(C)c3ccccc3)n2)cc1	-0.61	-0.95
CC1NCCc2sccc21 (stereo not drawn)	.	2.7
O=C(Cc1ccc(Cl)cc1)c1c[nH]c(C(=O)C(Cl)(Cl)Cl)c1	-0.27	.
Cc1ccc(OCc2nnc(NC(=O)c3ncoc3-c3cccc(Cl)c3)s2)cc1	.	2.2
Clc1ccccc1CNCc1ccc2c(c1)OCO2	-0.35	0.45
Cc1nc2sccn2c(=O)c1CCC(=O)O	1.2	-1.1
CC1(C)C2CC=C(CCOC(=O)NNC(=O)c3ccc(-c4ccccc4)cc3)C1C2 (stereo not drawn)	18	.
CCC(=O)Nc1c(C#N)c2nc3ccccc3nc2n1Cc1ccccc1	6.3	-0.1
Cn1cc(C(=O)NC2CCCC2)c(=O)c2cc(S(=O)(=O)N3CCCCC3)ccc21	0.1	0.5
CCOc1ccc(C2C3=C(CCCC3=O)Nc3ncnn32)cc1 (stereo not drawn)	79	0.1
COc1cccc(C2CC(c3cccs3)=NN2C(=O)CCC(=O)O)c1OC (stereo not drawn)	9.3	.
Cc1cc(C)cc(NC2=NC3CS(=O)(=O)CC3S2)c1 (stereo not drawn)	-0.53	-0.95
CC(NC(=O)Cn1[nH]c(=O)c2ccccc2c1=O)c1ccc(-n2ccnc2)cc1 (stereo not drawn)	.	-0.3
O=C(Cc1cn2ccsc2n1)NCc1ccccc1	.	0.95

Reformatted with two lines to a compound: 3 of the compounds above.
Values run as follows: CapD inh, AID504770
> CCOC(=O)C1=CN(Cc2ccc(OC)c(OC)c2)C=C(C(=O)OCC)C1c1ccc(OC)c(O)c1
→ 29, .
> CC1=C(C(=O)Nc2ccc(C)cc2)C(c2ccc([N+](=O)[O-])cc2)n2nnnc2N1 (stereo not drawn)
→ -0.26, .
> Cc1cccc(C(O)(C(=O)NN(C(=O)c2ccc(Br)o2)c2ccccc2)c2cccc(C)c2)c1
→ -0.27, .

Complete entries, looked up by structure. Screens in order: CapD inh, AID504770
Record of `CC1=C(C(=O)Nc2ccc(C)cc2)C(c2ccc([N+](=O)[O-])cc2)n2nnnc2N1` (stereo not drawn) = -0.26, .
Record of `COc1cc(C2SCCS2)cc(Br)c1OC(=O)NC(=O)c1c(F)cccc1F` = 1.6, 0.35

Continuation:
SMILES	CapD inh	AID504770
O=C(Cn1c2ccccc2c(=O)c2cc(Cl)ccc21)N1CCN(c2ccccc2)CC1	-0.03	.
Cc1noc(C)c1CSc1ccccc1C(=O)Nc1nccs1	.	1.1
CCCn1c(CNC(=O)c2cccc(C)c2)nc2ccccc21	6.7	-1
N#CC1=C(N)N2C(=C(C#N)C1c1cccnc1)Sc1ccccc12 (stereo not drawn)	0.35	-0.65
CC(C)NC(=O)c1ccc(-c2ccc(F)cc2)o1	.	1.4
COc1ccc(/C=N/n2cn[nH]c2=S)cc1OC	0.025	-1.1
COCCN1C(=O)/C(=C/c2c(NCCCn3ccnc3)nc3ccccn3c2=O)SC1=S	0.035	.
O=C(Nc1ccccc1)NC1CCCCC1	.	-1.7
CC(C)C(=O)NC(=S)Nc1ccc(N2CCCCC2)cc1	-1.4	0.2
CC(=O)Nc1ccc(Oc2nnc(C)c3ccccc23)cc1	-0.06	.
COc1ccc(-c2nc3c(c(SCC(N)=O)n2)Cc2ccccc2O3)cc1	0.52	0.25
CCOC(=O)c1cc(-c2ccccc2)n(CCC(=O)N2CCCCCC2)c1C	0.91	0.4
O=c1c2ccccc2[nH]c(=S)n1CCCn1ccnc1	-0.52	1.2
CN(C)c1ccc(C2=NCCCN2)c(SCc2cccc(C(F)(F)F)c2)c1	-0.48	0.05
CCOc1ccc(-n2c(O)c(C3=c4cc(Br)ccc4=NC3=O)sc2=S)cc1	0.085	.
O=C(NCCc1ccccc1)C(=S)N1CCCC1	-0.15	-0.85
CCC1(C)NC(=O)N(/N=C/c2cn(-c3ccccc3)nc2-c2cc3ccccc3o2)C1=O (stereo not drawn)	.	0.95
O=C(c1nn(Cc2ccccc2)c(=O)c2ccccc12)N1CCN(Cc2ccc3c(c2)OCO3)CC1	.	0.9
CCOc1ccc(S(=O)(=O)N2CCCN(S(=O)(=O)c3ccc(OCC)c4ccccc34)CC2)c2ccccc12	1	.
O=C(Nc1cnc2ccccn2c1=O)NC1CCCC1	25	-0.3
Cc1sc(-c2c(F)cccc2F)nc1O	3.8	0
COC(=O)c1cc(NC(=O)c2cccc(C(F)(F)F)c2)c(=O)oc1C	-0.77	.

Three entries out of the list, sorted by length of the SMILES, high to low:
SMILES	CapD inh	AID504770
CCOc1ccc(S(=O)(=O)N2CCCN(S(=O)(=O)c3ccc(OCC)c4ccccc34)CC2)c2ccccc12	1	.
CN(C)c1ccc(C2=NCCCN2)c(SCc2cccc(C(F)(F)F)c2)c1	-0.48	0.05
CCCn1c(CNC(=O)c2cccc(C)c2)nc2ccccc21	6.7	-1
